Bioassay records from PubChem.
Sa RN4220 lethal – growth inhibition of S. aureus RN4220, primary screen, OD600; 16 h; inhibition, % (test concentration not listed); actives 0.33% (n = 330,000); AID 1259311, 2017;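 active = z-score of -3 or lower and OD600 up to 0.18 on both plates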;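 note: plate controls were untreated cells for no effect and reference antibiotic for full effect; stock transfer was 100 nL into about 80 µL; one replicate is shown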
Mtb hypoxia rep – PubChem AID 1159583 | M. tuberculosis hypoxia-regulated fluorescent reporter, fluorescence | fluorescence inhibition, % (test concentration not listed) | actives 0.1% (n = 300,000);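 active = 35 to 45% if threefold the growth effect, above 45% if 1.5-fold the growth effect; inactive = the rest, general growth blockers included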;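 note: wells of about 50 µL received 100 nL stock; 0% = vehicle wells and 100% = reference inhibitor wells; whole bacteria with a GFP reporter of the hypoxia response; strong numbers were not always called active; many hits fall short of the cut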
Autofluor counter – counter-screen for toxin protease inhibitors: compound fluorescence. fluorescence intensity (no concentration beside the values). actives 3.1% (n = 360,000). AID 624483. compound autofluorescence counterscreen, microsphere flow cytometry; stronger effect = higher value;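 active = at least 3 SD above the mean of all compounds, about 16000 in these data; inconclusive = too few beads counted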;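 note: 100 nL of 1 mM stock went into each well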
BJeLR lethal – MLPCN primary cell-based screen for lethality selective to Ras in HRASV12 cells; BJeLR (HRASV12) viability, CellTiter-Glo ATP luminescence, 48 h; reference of the scale not given here; inhibition, % (no concentration beside the values); actives 0.17% (n = 300,000);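 active = replicate mean above 50%; inconclusive = above 50% but judged a plate artefact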;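 note: 50 nL library stock added to about 25 µL; numbers are from one replicate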
Sa ugtP lethal – growth inhibition of ugtP-null S. aureus, primary screen, RN4220 ugtP deletion, OD600; growth inhibition, % (concentration not given with the values); AID 1259309, 2017; 16 h; some inactives read as strong as hits; actives 0.54% (n = 330,000);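 active = z-score under -3 and OD600 up to 0.15 on both plates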;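 note: plate controls were untreated wells for no effect and antibiotic for full effect; wells of about 80 µL received 100 nL stock; the first replicate is given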
PrP 5UTR inh – inhibition of PrP 5' UTR reporter expression | cell-based PrP 5' UTR mRNA reporter, plate reader | inhibition, % (concentration not given with the values) | actives 0.35% (n = 340,000) | AID 488862, 2010;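 active = every replicate at 50% or more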;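 note: 0 = median of the neutral control wells; tested in H4 reporter cells; numbers are from one replicate; inactives centre near -14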
Mtb hypoxia rep growth – further read-out of Mtb hypoxia rep, marked with its call; growth inhibition, %; measured here: M. tuberculosis growth (absorbance);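 0% = vehicle and 100% = reference antibiotic; read after six days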
* = called active by the depositor; ? = inconclusive; . = not tested or not shown. Rows were taken by chance. About 4.1% of those tested had a hit in this group.

SMILES	Sa RN4220 lethal	Mtb hypoxia rep	Mtb hypoxia rep growth	Autofluor counter	BJeLR lethal	Sa ugtP lethal	PrP 5UTR inh
COc1ccc(CN2C(=O)c3cccnc3C2=O)cc1S(=O)(=O)N1CCOc2ccccc21	2.4	6	1	5305	-16	9	-21
COc1cc2c(cc1OC)C(C)N(S(=O)(=O)c1cn(C)cn1)CC2 (configuration not stated)	3.3	11	0	5954	0	9	.
O=C(CSc1nc2ccccc2c(=O)n1CCCO)Nc1ccc2c(c1)OCCO2	0.7	3	-5	.	.	1	-8
O=S(=O)(N/N=C/c1cccc(OC2CSC2)c1)c1ccccc1	.	.	.	10827	-5	.	-14
CC(=O)Nc1ccc(OC(=O)Cc2ccc(Cl)cc2)cc1	3.7	4	18	3525	5	-4	-16
Cc1oc(-c2cccs2)nc1CN1CC[C@@](O)(c2ccccc2)[C@H]2CCCC[C@@H]21	1.2	-10	-2	2478	2	-13	-34
COc1ccc(Cl)cc1C(=O)C1CCCN(Cc2cnc(N3CCOCC3)s2)C1 (configuration not stated)	1.3	5	1	3217	9	-2	-13
CC1CC(Nc2ccccc2)=CC(=O)O1 (configuration not stated)	4.2	1	-3	3309	2	-3	-23
O=C(NCC(O)c1ccccc1)c1ccccc1 (configuration not stated)	-0.2	2	1	6206	-7	3	-28
O=C(NC1CCCCC1)C(c1ccccc1F)N(Cc1ccco1)C(=O)c1ccccn1 (configuration not stated)	3.3	-2	4	5981	-2	5	-56
COc1cccc2cc(C(N)=O)c(=NNC(=O)c3ccccc3)oc12	-0.1	12	5	.	.	14	.
O=C(CSc1nc2nccnc2c(=O)n1Cc1cccs1)Nc1ccccc1	1.1	7	2	5646	0	1	7
c1ccc(-c2nc3c(ccc4ccccc43)[nH]2)nc1	-8.2	10	11	2958	0	-17	-87
CCc1noc(C)c1C(=O)NNC(=O)COc1ccccc1C	0.5	3	5	5690	.	3	.
CSCCC(NC(=O)COc1ccccc1)C(=O)NCCOc1ccc(C)cc1 (configuration not stated)	2.7	2	-6	4284	2	10	16
O=C(CCCc1ccccc1)NCc1ccc2c(c1)OCO2	-4.0	-6	3	3735	-2	6	-13
O=C1COc2ccc(C(=O)COC(=O)c3sc4ccccc4c3Cl)cc2N1	3.0	-2	0	2561	-9	0	-29
CC1CC(OC(=O)c2ccccc2)(c2ccccc2)C(C)CN1C (configuration not stated)	-0.8	0	-4	5295	-13	5	-24
CN(CC(=O)NCc1ccccn1)S(=O)(=O)c1ccc(Cl)cc1	18	-8	7	.	-4	7	-4
CC(=O)Nc1cccc(C(C)=NNC(=O)c2ccccc2Cl)c1	-1.3	6	8	.	.	4	.
CC(C)N1CCC(N2CCN(C/C=C/c3ccc(F)cc3)CC2CCO)CC1 (configuration not stated)	-1.2	2	7	2562	1	11	-22
Cc1cc(N2C(=O)C3CC=CCC3C2=O)no1 (configuration not stated)	6.3	14	7	11072	-3	8	-34
CC1=C(C)C(=O)C(CCCCC#CCCCC#CCO)=C(C)C1=O	.	.	.	4931	1	.	24
O=C(NCc1cccnc1)c1cccc2c1C(=O)N(C1CCCCC1)C2	5.3	10	8	4541	1	0	-6
CCCN(Cc1ccc(C)cc1)C(=O)c1ccc(CNS(=O)(=O)c2ccc(C(C)=O)cc2)cc1	-1.6	2	2	?	.	-8	.
Cc1cc2cc(CN(CCCO)S(=O)(=O)c3cccc4nsnc34)c(=O)[nH]c2cc1C	5.7	0	3	22386*	-13	4	13
COCCNC(=O)c1cc2cc(Cl)cc(Cl)c2oc1=O	3.5	-2	1	4969	6	0	-18
O=S(=O)(NC1CCN(Cc2ccccc2)CC1)c1cccc(S(=O)(=O)N2CCOCC2)c1	2.3	-1	-6	4972	-5	8	-5
COc1cccc(C=Nc2ccc(N3CCOCC3)cc2)c1O	1.9	15	4	3826	-28	2	-22
COc1ccc(CN2C(=O)c3cccnc3C2=O)cc1S(=O)(=O)N1CCCCC1C (configuration not stated)	5.3	2	0	4276	1	12	1

Copied from above (6 entries):
SMILES	Sa RN4220 lethal	Mtb hypoxia rep	Mtb hypoxia rep growth	Autofluor counter	BJeLR lethal	Sa ugtP lethal	PrP 5UTR inh
O=C(NCc1cccnc1)c1cccc2c1C(=O)N(C1CCCCC1)C2	5.3	10	8	4541	1	0	-6
CCCN(Cc1ccc(C)cc1)C(=O)c1ccc(CNS(=O)(=O)c2ccc(C(C)=O)cc2)cc1	-1.6	2	2	?	.	-8	.
Cc1cc2cc(CN(CCCO)S(=O)(=O)c3cccc4nsnc34)c(=O)[nH]c2cc1C	5.7	0	3	22386*	-13	4	13
COCCNC(=O)c1cc2cc(Cl)cc(Cl)c2oc1=O	3.5	-2	1	4969	6	0	-18
O=S(=O)(NC1CCN(Cc2ccccc2)CC1)c1cccc(S(=O)(=O)N2CCOCC2)c1	2.3	-1	-6	4972	-5	8	-5
COc1cccc(C=Nc2ccc(N3CCOCC3)cc2)c1O	1.9	15	4	3826	-28	2	-22

(more compounds)
SMILES	Sa RN4220 lethal	Mtb hypoxia rep	Mtb hypoxia rep growth	Autofluor counter	BJeLR lethal	Sa ugtP lethal	PrP 5UTR inh
C/C(=C\c1ccc(N(C)C)cc1)[N+](=O)[O-]	25	2	17	22567*	13	-3	-15
O=C(C1CCN(c2ncnc3c2nc2n3CCCCC2)CC1)N1CCN(c2cccc(Cl)c2)CC1	1.7	24	42	4421	13	-12	-22
COC(=O)c1ccc(CNC(=O)COC(=O)c2ccc(N(C)C)cc2)cc1	-0.3	-2	-3	4467	-5	-3	0
O=C(NCc1ccc2c(c1)OCO2)c1nc(Cn2cc([N+](=O)[O-])cn2)no1	6.1	-6	-4	4110	-8	7	10
COc1cccc2oc3ccc(C#Cc4ccccn4)cc3c(=O)c12	.	.	.	4211	21	.	-30
CCOC(=O)NN=Cc1ccc(OC)c(O)c1	2.1	2	0	.	.	7	.
O=C(CN(Cc1ccco1)C(=O)CNS(=O)(=O)c1ccccc1)NCc1ccccc1	2.0	.	.	4158	-1	5	-22
Cc1c(NC(=S)NC(=O)c2cccc3ccccc23)cccc1C(=O)O	3.2	2	9	6570	0	5	-5
O=C(NCCNc1ccc(Cl)cc1[N+](=O)[O-])c1cccnc1	4.3	9	2	1933	5	-5	6
COc1ccccc1-n1c(SCC(=O)NC(C)(C)C)nc(O)cc1=O	7.9	1	1	8553	2	8	-4
CC(=NNC(N)=S)c1cc2ccc(O)cc2oc1=O	1.5	8	1	.	.	4	.
Cc1ccc(-n2nc3c(=O)n(CCCC(=O)NCc4cccc(Cl)c4)nc(C)c3c2C)cc1	0.8	-3	2	5341	-6	-4	-8
Cc1ccccc1-c1nc(CS(=O)(=O)CC(=O)NCCCN2CCOCC2)c(C)o1	-1.1	-1	5	5728	2	-6	-9
CCOC(=O)N1CCN(S(=O)(=O)c2cc(Br)cc3c2N(C(C)=O)C(C)C3)CC1 (configuration not stated)	3.1	8	4	9667	-9	-2	-14
CC(C)c1ccc(N(CC(=O)NC2CCCC2)C(=O)CCC(=O)Nc2nccs2)cc1	4.8	1	-6	3734	-1	2	-18
CCOc1cc(C=NNC(=O)c2ccccn2)ccc1OC(=O)c1cccs1	-0.2	-9	1	.	.	-2	.
COc1ccccc1N1CCN(S(=O)(=O)c2cc(C)sc2C)CC1	4.2	8	-1	6719	-6	3	-48
CCOC(=O)c1nnc2cc(-c3ccccc3)nn2c1C	-2.1	.	.	4114	.	-6	-35
COc1cccc(N2CCN(CC(=O)N3CCN(S(=O)(=O)c4ccc(Cl)cc4)CC3)CC2)c1	1.2	-17	-7	?	.	3	-18
COc1ccc(NC(=O)N2C[C@@H]3C[C@@H](C2)c2cccc(=O)n2C3)cc1	4.4	.	.	5871	-1	0	-27

Individual results from above.
Value of CCOC(=O)c1nnc2cc(-c3ccccc3)nn2c1C under Sa RN4220 lethal: -2.1
Value of CCOc1cc(C=NNC(=O)c2ccccn2)ccc1OC(=O)c1cccs1 under Sa ugtP lethal: -2

More results follow.
SMILES	Sa RN4220 lethal	Mtb hypoxia rep	Mtb hypoxia rep growth	Autofluor counter	BJeLR lethal	Sa ugtP lethal	PrP 5UTR inh
COc1nc(N(c2ccccc2)c2ccccc2)nc(-n2ccnc2)n1	21	.	.	3278	8	-3	-3
C=CCn1c(SCC2=C(C(=O)OCC)C(C)NC(=O)N2)nnc1C1CCCCC1 (configuration not stated)	1.4	-5	1	3673	5	1	2
CCCCCOC(=O)C1=C(C)NC(=O)NC1c1ccccc1OCC (configuration not stated)	14	21	9	4915	-21	-11	-8
CCc1cc(=O)oc2c3c(cc(OCC(=O)Nc4cccnc4)c12)OC(C)(C)CC3	1.4	.	.	6334	10	-4	-3
CCN(CC)S(=O)(=O)c1cccc(C(=O)N[C@H](C(=O)NNC(=O)c2ccccc2)C(C)C)c1	4.4	11	0	4589	8	5	-1
COC(=O)c1sc(S(=O)(=O)NCC(=O)O)c(C(=O)OC)c1C	5.1	9	21	4879	-3	3	-16
O=C(COC(=O)C1CC2CCCC(C1)C2=O)Nc1nc(-c2ccc(F)c(F)c2)cs1 (configuration not stated)	1.9	5	-4	4299	8	-1	-20
Cc1cccc(C(=O)Nc2sc3c(c2C#N)CCCCC3)c1	2.9	5	5	2653	2	-7	-7
Cc1oc(-c2ccccc2F)nc1CS(=O)(=O)CC(=O)NC1CCCC(C)C1C (configuration not stated)	1.1	-6	-1	6030	11	-15	-18
FC(F)(F)c1ccc(-c2n[nH]c(=S)o2)nc1	5.4	-2	4	4081	5	6	-19
COc1ccc(-c2cc3nc(-c4ccccc4)cc(N4CCC5(CC4)OCCO5)n3n2)cc1	-7.7	10	0	8237	-19	69	5
O=C(NCCCNC(=O)c1ccc(Cl)cc1Cl)c1ccccn1	-4.3	3	-14	3610	-9	11	-14
CC1CCCC/C1=N\NC(=S)Nc1cccnc1 (configuration not stated)	.	.	.	4396	-13	.	-35
CCOC(=O)C1CCN(C(=O)CSc2ccccc2)CC1	0.1	5	7	3701	-6	-8	-26
CSc1ccc(C(=O)N2CCc3ccc(NC(=O)c4ccccn4)cc3C2)cc1	3.1	-3	7	6396	-2	-6	-19
CC(C)NC(=O)NC(=O)COC(=O)Cc1ccsc1	5.1	-3	-2	3194	-3	1	-9
CC(=NNc1ccccn1)c1ccc(Br)s1	-8.3	3	6	.	.	6	.
CC(C)n1cc(CN2CCC(n3nccc3NC(=O)CCCc3ccccc3)CC2)cn1	1.7	7	4	5729	-6	1	-22
CC(NC(=O)COC(=O)C12CC3CC(CC(Br)(C3)C1)C2)c1ccccc1 (configuration not stated)	2.4	16	8	4204	.	1	-5
Cc1cccc(N2C(=O)CC(N3CCN(Cc4ccc(Cl)cc4)CC3)C2=O)c1 (configuration not stated)	0.8	.	.	4494	5	0	-2
Cc1ccc(-c2cn3cccc(C)c3n2)cc1	11	3	5	3148	7	19	-94
COc1ccc(CC(=O)OCC(=O)NC(=O)Nc2ccccc2F)cc1	-0.3	7	5	3907	.	6	-17
CC1CCN(S(=O)(=O)c2ccc(S(=O)(=O)N3CCCC3)cc2)CC1	6.2	8	1	5857	-2	-1	-21
CCc1c(C(C)S(=O)(=O)c2ccccc2)[nH]c(=O)n1CC (configuration not stated)	2.0	1	4	4532	-1	2	-16
Cc1ccccc1NC(=S)N(CCN(C)C)C(C)c1ccccn1 (configuration not stated)	-1.2	-3	5	19817*	23	3	4
Cc1ccccc1OCCOC(=O)c1ccc(S(=O)(=O)N2CCCC2)cc1	-0.7	-1	-1	3934	.	3	6
O=P(c1ccc2c(c1)OCCO2)(N1CCOCC1)N1CCOCC1	1.1	.	.	4599	-11	5	-11
COc1ccc(O)c(-c2cc(-c3ccc(F)cc3)n[nH]2)c1	12	0	-5	4229	5	4	-67
COc1ccc(CC(=S)N2CCOCC2)cc1OC	1.2	4	-1	3762	-1	5	-20
Cc1cc(C(=O)COc2ccccc2Cl)c(C)n1C1CC1	0.5	4	11	4026	.	-2	-32
CC(C)Cn1c(N)c(C(=O)NCCN2CCOCC2)c2nc3ccccc3nc21	0.8	15	4	10275	4	-13	-19
CCSc1nnc(NC(=O)Nc2cccc(C)c2)s1	6.0	-1	5	5143	-3	-8	-46
O=C(O)c1ccc2c(c1)N(Cc1ccccc1)C(=O)c1ccccc1S2	10	14	7	4245	-4	5	-12
CC(C)(C)n1ncc2c(=O)n(CC(=O)Nc3ccc(Cl)cc3)cnc21	3.7	-2	9	3407	-6	-1	-21
